# GLA inh pH 4.5: alpha-galactosidase A (human) inhibition, pH 4.5; P06280; purified enzyme, 4-MU-alpha-Gal fluorescence, pH 4.5; activity change, negative = inhibition, % at 105 µM; 230,000 tested, under 10 active; AID 1467; inconclusive = small, poorly fitted or top-dose-only inhibition, or a rising curve; inactive = flat fitted curve, though single readings scatter; no compound was filed as active;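 also: 0% = full activity with enzyme and -100% = basal without enzyme; dose as in the result columns while the protocol names 77 µM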
# Target sequence (P06280 whole entry, looked up): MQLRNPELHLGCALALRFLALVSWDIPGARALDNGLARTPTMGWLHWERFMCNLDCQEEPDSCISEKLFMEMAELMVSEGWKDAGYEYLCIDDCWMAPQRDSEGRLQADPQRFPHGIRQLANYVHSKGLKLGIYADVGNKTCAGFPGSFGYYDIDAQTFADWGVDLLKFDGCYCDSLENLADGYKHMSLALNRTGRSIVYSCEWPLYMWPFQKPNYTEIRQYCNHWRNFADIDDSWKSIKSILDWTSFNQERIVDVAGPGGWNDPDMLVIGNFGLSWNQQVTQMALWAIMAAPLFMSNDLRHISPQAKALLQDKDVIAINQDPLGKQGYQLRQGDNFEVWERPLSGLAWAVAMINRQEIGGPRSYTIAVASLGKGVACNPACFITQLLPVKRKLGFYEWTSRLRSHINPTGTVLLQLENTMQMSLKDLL
# Rango-impB inh: prevents formation of the Rango-importin beta complex; Q14974; Rango CFP/YFP FRET sensor + importin beta, 45 min; Potency, µM (titrated, usually from 92.2 µM), for inactives: at the top dose inhibition of complex formation; hit rate 0.031% among 340,000; AID 540263; active = rising FRET ratio curve, often small or poorly fitted; inconclusive = mostly compound fluorescence or quenching in the first reads; inactive = flat curves in all reads;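 also: potency is read from the fitted curve at half-maximal effect; 0% = DMSO wells and 100% = buffer wells lacking importin beta; nearly all actives have a fitted effect of over 15% in size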
#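 FRET biosensor (snurportin 1 IBB flanked by EYFP and cerulean), 50 nM, with compound 5 min, then 0.125 microM importin beta in PBS, 1 mM DTT, 0.02% Tween-20, 0.1% BSA. CFP/YFP ratio read after 45 min at room temperature; pre-read flags interference.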
# miR-21 reporter: raises the signal of a miR-21 reporter | HeLa miR-21 FLuc reporter, luciferase, 48 h | Potency, µM (highest dose often 38.3 µM), inactives show at the top dose reporter change, positive = more light | 340,000 tested, under 10 active | AID 2288; active = well fitted rising curve with a large enough effect; inconclusive = small, poorly fitted or top-dose-only effect; inactive = no such curve, though single readings can be large or run the other way;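 also: % of control where 0% means no effect; miR-21 action dims this reporter so a rising signal means less miR-21 action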
#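 Compounds were titrated across several concentrations (up to approximately 40 uM) and incubated 48 hours with HeLa miR-21-FLuc reporter cells (miR-21 target sequence downstream of FLuc, endogenous miR-21). Readout was firefly luciferase luminescence after lytic detection reagent.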
# Rango release inh: inhibitors of RanGTP-induced Rango-importin beta complex dissociation; Potency, µM (series often up to 46.1 µM), without a hit: at the highest dose activity change, negative = inhibition; Biochemical FRET Rango-importin beta, RanGTP-induced dissociation; hit rate 0.071% among 340,000; O95149+P62826; active means falling FRET ratio curve, often poorly fitted, with flat reads before Ran was added; inconclusive means other falling curves, or compound fluorescence or quenching; inactive means flat or rising ratio curve;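 also: potency is read from the fitted curve at half-maximal effect; % of control where 0% means no effect; nearly all actives have a fitted effect of over 45% in size; -100% = wells without RanGTP and RCC1; the record marks most hits as doubtful in a second field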
#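 Quantitative HTS using a FRET biosensor: 0.1 uM Rango, 0.25 uM importin beta, 0.6 uM Ran, 2 mM GTP, 0.2 uM RCC1 final, PBS with DTT, Tween-20 and BSA. Post-read taken 45 min after Ran addition.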
# * = called active by the depositor; ? = inconclusive; . = not tested or not shown; & = joins results of further samples. Only part of the results is shown (hit frequency here may not be typical).
GLA inh pH 4.5 | Rango-impB inh | miR-21 reporter | Rango release inh | Compound
-5 | -0.5% | -2% | 0% | CC(=O)c1cccc(NC(=O)Cc2ccc3c(c2)CCCC3)c1
-21 | 0.1% | 1% | -20% | Cc1ccc(N2CC(C(=O)NC3=NCCS3)CC2=O)cc1C (configuration not stated)
. | 5.0% | 0% | ? | Cc1ccc2c(C)c(C(=O)N(Cc3ccc(N(C)C)cc3)C3CCS(=O)(=O)C3)oc2c1 (configuration not stated)
. | 2.0% | . | 4% | CCC(NC(=O)c1cncc(Br)c1)c1ccccc1 (configuration not stated)
. | 0.8% | . | -28% | COc1cc(OC)nc(Oc2ccccc2C=O)n1
-3 | -1.9% | -14% | -13% | COc1ccccc1NS(=O)(=O)c1cc(NC(=O)CNC(=O)c2ccc(C)s2)ccc1Cl
7 | -0.6% | 5% | 12% | O=C(NCCCc1nc2ccccc2[nH]1)c1ccc(F)cc1
. | -2.1% | . | 2% | COc1ccc(-c2sc3ccc(OC)cc3c2C#Cc2ccccn2)cc1
. | 3.1% | . | 8% | Cc1cc(C(=O)OCC(=O)N(C)c2ccccc2)c(C)o1
2 | . | 9% | . | CC(C)CCNC(=O)c1ccc(Cl)c(NC(=O)c2ccccc2F)c1
1 | 2.4% | -7% | 7% | CC(C)Oc1ccc(CCNC(=O)CC2C(=O)NCCN2C)cc1 (configuration not stated)
? | -3.8% | -1% | -8% | CCCCNc1ccccc1C(=O)OCC(=O)Nc1ccc(S(N)(=O)=O)cc1
2 | ? | -3% | 24% | CC1CCC(NC(=O)CN2CCCN(Cc3ccc(F)cc3Cl)C2=O)CC1 (configuration not stated)
. | -2.1% | -7% | 15% | O=C(Nc1ccc2c(c1)OCCO2)c1c[nH]c(=O)n(-c2ccc(F)c(Cl)c2)c1=O
-4 | -0.5% | -7% | 38% | COc1ccc(CCNC(=O)CCn2c(=O)oc3ccccc32)cc1
-1 | -0.2% | -10% | 13% | CC(=O)Nn1c(C)nnc1-n1nc(C)cc1C
-2 | 2.4% | 1% | 27% | Cc1nc([N+](=O)[O-])cn1CC(O)c1ccc(F)cc1 (configuration not stated)
1 | 0.4% | 1% | 28% | COC(=O)CSc1nnc(-c2ccncc2)o1
8 | -1.9% | -5% | 19% | Cc1cccc(NC2=NCC(=O)N2CCc2ccccc2)c1
. | -1.2% | -5% | 2% | CC1=C(C(=O)OC2CCCCC2)C(c2ccc(O)cc2)NC(=O)N1 (configuration not stated)
9 | 3.2% | -2% | -7% | Cc1ccccc1-c1ccc(=O)n(CC(=O)Nc2ccc(-n3cnnn3)cc2)n1
. | -1.4% | . | -12% | CCN1C(=O)Nc2cccc3cccc1c23
4 | 0.1% | 5% | -5% | Cc1ccc(NC(=O)c2ccc(=O)[nH]c2)cc1S(=O)(=O)N1CCCCC1
. | -0.2% | 0% | 4% | COc1ccc2nc(SCC(=O)NCc3ccc(S(N)(=O)=O)cc3)[nH]c2c1
-3 | 0.8% | -4% | -9% | CC1(C)CC(O)CC(C)(C)N1CC(O)COCCOc1ccc(Br)cc1 (configuration not stated)
-2 | -0.5% | 0% | -23% | CSc1nnc2c(n1)OC(c1ccc(C(=O)O)cc1)N(C(C)=O)c1ccccc1-2 (configuration not stated)
5 | -4.3% | -4% | -23% | CC(SCc1ccccc1)C(=O)Nc1ccccc1-c1ccccc1 (configuration not stated)
-2 | -2.2% | -31% | 12% | O=C(NC(=S)Nc1ccc2c(c1)OCO2)c1ccccc1
-5 | ? | -2%&0% | 10% | COc1cccc(-c2cc(C(=O)Nc3ccn(Cc4ccc(C)cc4)n3)no2)c1
-6 | 2.5% | 1% | -16% | CCOC(=O)C1CCN(C(C(=O)NC2CCCCC2)c2ccc(OC)cc2)CC1 (configuration not stated)
18 | -1.7% | -7% | -6% | Cc1cccc(-n2c(=O)[nH]c3c(C(N)=O)nc(C(C)C)nc32)c1
. | 1.8% | 6% | -6% | O=C(O)c1cc2c(cc1NC(=O)c1ccccc1C(F)(F)F)OCCCO2
. | 2.2% | -5% | 0% | CCOc1ccc(S(=O)(=O)N2CCCC(C(=O)NCc3ccccn3)C2)cc1C (configuration not stated)
2 | -1.6% | -12% | 12% | COC(=O)C1=C(C)N(CCc2ccccc2)C(=O)C1
5 | -0.4% | 1% | 5% | CCC1(CC)NC(=O)N(CC(=O)OCC(=O)NC(=O)c2ccc(Cl)cc2)C1=O
1 | ? | -4% | -16% | O=C1CCCC2=C1C(c1cccc(O)c1)c1c(ccc3ncccc13)N2 (configuration not stated)
0 | 0.2% | -3% | 1% | CN(C)C(=O)C[n+]1ccc(/C=N/O)cc1
-1 | -0.6% | 1% | 3% | COc1cccc(CN2CCCC(C(=O)c3ccc4c(c3)OCO4)C2)c1O (configuration not stated)
-7 | 1.0% | -7% | 11% | CCOc1cc(C2NC(=S)NC(C)=C2C(=O)Nc2ccc(OC)cc2)ccc1O (configuration not stated)
-2 | -2.9% | 0% | -17% | O=C(Nc1ccc(N2CCOCC2)cc1)C1CCCCN1S(=O)(=O)c1ccccc1 (configuration not stated)
. | 0.2% | 1% | -3% | Cc1ccc(NC(=O)C2CCCN(S(=O)(=O)c3ccc(-n4cnnn4)cc3)C2)cc1 (configuration not stated)
-10 | ? | -9% | 0% | CC1CN(C(=O)/C=C/c2ccc3c(c2)OCO3)CC(C)O1 (configuration not stated)
-1 | 2.3% | -35% | 1% | Clc1nc2sccn2c1/C=N/n1cnc2ccccc21
-9 | 1.7% | -3% | -13% | O=C(Nc1ccc(N2CCN(Cc3ccccc3)CC2)cc1)c1ccccc1[N+](=O)[O-]
3 | 0.3% | -18% | -1% | O=C1CN(CC(=O)N2CCCCC2)c2ccccc2O1
-10 | 5.0% | 8% | -4% | CCN(CC)S(=O)(=O)c1ccc(NC(=O)C(C)N(c2ccc(OC)cc2)S(C)(=O)=O)cc1 (configuration not stated)
-3 | -0.3% | -4% | 15% | COc1ccccc1NC(=O)COc1ccc(/C=N/NS(=O)(=O)c2ccc(C)cc2)cc1
-5 | ? | 2% | -12% | O=C(NC(=S)Nc1ccccc1N1CCOCC1)c1sc2ccccc2c1Cl
4 | 2.7% | 1% | 1% | O=C(CSc1cn(CC(=O)N2CCCC2)c2ccccc12)NCC1CCCO1 (configuration not stated)
. | ? | -4% | 0% | COc1ccc(C(=O)c2c(-c3cccc(C)c3)oc3ccc(N4CCOCC4)cc23)cn1

# New compounds follow:
GLA inh pH 4.5 | Rango-impB inh | miR-21 reporter | Rango release inh | Compound
-8 | -1.9% | 0% | -13% | COc1ccccc1OCC(=O)NCCSCc1ccc(Cl)cc1
-24 | 2.1% | -8% | -14% | CCN(C(=O)c1cc2cccc(OC)c2oc1=O)C1CCCCC1
0 | -2.6% | 9% | ? | Cc1ccc(NC(=O)COC(=O)c2cc(Cl)ccc2[N+](=O)[O-])c(C)c1
4 | 1.9% | -12% | 1% | CCn1nc(C)c(NC(=O)Nc2cccc(Cl)c2Cl)c1C
7 | -0.6% | -38% | 15% | O=C(c1cc2cc(Br)ccc2s1)N1CCOCC1
3 | 1.2% | -10% | 3% | S=c1[nH]nc(CSCc2ccc(Cl)cc2Cl)n1-c1ccccc1
0 | -1.4% | 0% | -9% | CCC(C)(NC(=O)c1ccc2c(c1)OCO2)C(=O)NC1CCCCC1 (configuration not stated)
4 | 3.9% | -5% | 0% | O=C(NCCCCCCNC(=O)C1CCCC1)C1CCCC1
8 | 11% | -26% | -7% | O=C(CC1NCCNC1=O)Nc1ccc(Cl)c(Cl)c1 (configuration not stated)
-21 | -0.2% | -1% | 3% | CCN(CC)S(=O)(=O)c1cc(C(=O)OCC(=O)Nc2cccc(Br)c2)ccc1F
2 | 0.9% | -3% | 0% | Cc1cccc(C(C)C)c1NC(=O)COC(=O)c1cccc(S(=O)(=O)N2CCc3ccccc3C2)c1
. | -1.8% | . | 0% | COCc1c(C(=O)OCC(=O)N(C)C2CCS(=O)(=O)C2)oc2ccccc12 (configuration not stated)
. | -4.8%&-3.5% | 0%&0% | 4%&-12% | NC(=O)c1[nH]cnc1N
-7 | 1.2% | -5% | -12% | O=C(O)c1ccc(OCCOc2ccccc2)cc1
-9 | -2.2% | -1% | 1% | CCOc1ccc(-c2nnc3ccc(SCC(=O)NCc4ccco4)nn23)cc1
. | 2.2% | 0% | -14% | CC(=O)c1cn(N2CCCCC2)c(=O)[nH]c1=O
-16 | 0.0% | -6% | 2% | COc1ccccc1N(CC(=O)Nc1ccc(C(F)(F)F)cc1)S(C)(=O)=O
0 | 0.3% | 3% | -6% | C#CC[N+]1(CC#Cc2ccccc2)CCCCC1
-1 | 3.2% | 1% | -6% | Cc1ccc(C2(CC(=O)N3CCCC3)CCOC(C(C)C)C2)cc1 (configuration not stated)
0 | -2.2% | 14% | 8% | Cc1c(C(=O)N/N=C/c2ccccc2)[nH]c2c([N+](=O)[O-])cccc12

# Single records (already shown). Order of screens: GLA inh pH 4.5 | Rango-impB inh | miR-21 reporter | Rango release inh
# COc1ccccc1N(CC(=O)Nc1ccc(C(F)(F)F)cc1)S(C)(=O)=O as listed: -16 | 0.0% | -6% | 2%
# CCN(CC)S(=O)(=O)c1cc(C(=O)OCC(=O)Nc2cccc(Br)c2)ccc1F as listed: -21 | -0.2% | -1% | 3%
# COCc1c(C(=O)OCC(=O)N(C)C2CCS(=O)(=O)C2)oc2ccccc12 (configuration not stated) as listed: . | -1.8% | . | 0%
# CCOc1ccc(-c2nnc3ccc(SCC(=O)NCc4ccco4)nn23)cc1 as listed: -9 | -2.2% | -1% | 1%
# Cc1ccc(NC(=O)COC(=O)c2cc(Cl)ccc2[N+](=O)[O-])c(C)c1 as listed: 0 | -2.6% | 9% | ?

# Shown with two lines to a compound: part of the list above.
# Under each structure: GLA inh pH 4.5, Rango-impB inh, miR-21 reporter, Rango release inh
> CC1CCC(NC(=O)CN2CCCN(Cc3ccc(F)cc3Cl)C2=O)CC1 (configuration not stated)
  2, ?, -3%, 24%
> O=C(Nc1ccc2c(c1)OCCO2)c1c[nH]c(=O)n(-c2ccc(F)c(Cl)c2)c1=O
  ., -2.1%, -7%, 15%
> COc1ccc(CCNC(=O)CCn2c(=O)oc3ccccc32)cc1
  -4, -0.5%, -7%, 38%
> CC(=O)Nn1c(C)nnc1-n1nc(C)cc1C
  -1, -0.2%, -10%, 13%
